High-throughput results (PubChem BioAssay)
Mtb hypoxia rep – Mtb hypoxia fluorescent reporter inhibition. M. tuberculosis hypoxia-regulated fluorescent reporter, fluorescence. fluorescence inhibition, % (concentration not given with the values). 300,000 compounds, 0.1% hits;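 active = 35 to 45% if threefold the growth effect, above 45% if 1.5-fold the growth effect; inactive = the rest, general growth blockers included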;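 also: wells of about 50 µL received 100 nL stock; 0% = vehicle wells and 100% = reference inhibitor wells; whole bacteria with a GFP reporter of the hypoxia response; strong numbers were not always called active; many hits fall short of the cut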
PrP UTR inh – inhibition of PrP 5' UTR reporter expression; cell-based PrP 5' UTR mRNA reporter, plate reader; inhibition, % (no concentration beside the values); 340,000 compounds, 0.35% hits;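 active = every replicate at 50% or more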;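 also: 0 = median of the neutral control wells; tested in H4 reporter cells; numbers are from one replicate; inactives centre near -14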
BJeLR viability – kills HRASV12-expressing BJeLR cells | BJeLR (HRASV12) viability, CellTiter-Glo ATP luminescence, 48 h; reference of the scale not given here | inhibition, % (no concentration beside the values) | 300,000 compounds, 0.17% hits | AID 1554;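 active = replicate mean above 50%; inconclusive = above 50% but judged a plate artefact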;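 also: 50 nL library stock added to about 25 µL; numbers are from one replicate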
Sa RN4220 lethal – S. aureus RN4220 growth inhibition. inhibition, % (test concentration not listed). 330,000 compounds, 0.33% hits. OD600, 16 h;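 active = z-score of -3 or lower and OD600 up to 0.18 on both plates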;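 also: plate controls were untreated cells for no effect and reference antibiotic for full effect; stock transfer was 100 nL into about 80 µL; one replicate is shown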
Bead autofluor – compound fluorescence in toxin protease inhibitor counterscreen | AID 624483 | compound autofluorescence counterscreen, microsphere flow cytometry; stronger effect = higher value | fluorescence intensity (no concentration beside the values) | 360,000 compounds, 3.1% hits;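 active = at least 3 SD above the mean of all compounds, about 16000 in these data; inconclusive = too few beads counted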;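 also: 100 nL of 1 mM stock went into each well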
ugtP null kill – growth inhibition of S. aureus ugtP deletion strain. S. aureus RN4220 ugtP deletion, OD600 growth, 16 h; some inactives read as strong as hits. growth inhibition, % (no concentration beside the values). 330,000 compounds, 0.54% hits. AID 1259309;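 active = z-score under -3 and OD600 up to 0.15 on both plates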;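 also: plate controls were untreated wells for no effect and antibiotic for full effect; wells of about 80 µL received 100 nL stock; the first replicate is given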
Mtb hypoxia rep growth – also measured in Mtb hypoxia rep; calls as there; growth inhibition, %; measured here: M. tuberculosis growth (absorbance);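 0% = vehicle and 100% = reference antibiotic; read after six days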
* = called active by the depositor; ? = inconclusive; . = not tested or not shown.

1. COc1ccc(NC(=O)CN(C)CC(=O)Nc2ccc(C)c(S(=O)(=O)N3CCCCC3)c2)cc1
2. O=C(CSc1cc(Cl)ccc1Cl)Nc1ccc(N2CCOCC2)cc1
3. CC(Oc1ccc(Cl)cc1)C(=O)N/N=C/c1ccsc1 (stereo not given)
4. CCCCOc1ccc(C2NC(=O)NC(C)=C2C(C)=O)cc1OCC (stereo not given)
5. O=C(O)c1ccc(-c2ccc(/C=C3\NC(=O)N(Cc4ccc(Cl)cc4)C3=O)o2)cc1Cl
6. C=CCNC(=O)c1cnn(-c2ccccc2)c1-c1ccccc1
7. NCCCC[C@H]1CNC(=S)N1CCCCC1CCCCC1
8. COCCOc1cc2ncnc(N3CCC(C(=O)O)CC3)c2cc1OCCOC
9. O=C(NCc1ccc2c(c1)OCO2)c1ccc2c(c1)S(=O)(=O)c1ccccc1C2=O
10. CCOC(=O)N1CCN(C(=O)c2ccc(Cn3c(=S)[nH]c4ccc(Br)cc4c3=O)cc2)CC1
Screen / compound no.,1,2,3,4,5,6,7,8,9,10
Mtb hypoxia rep,-3,2,.,0,6,2,.,18,0,-3
Mtb hypoxia rep growth,8,4,.,3,17,2,.,15,4,5
PrP UTR inh,-9,-1,-2,-10,-10,-13,1,-10,-28,-7
BJeLR viability,.,.,-6,1,-2,-5,1,-5,-3,17
Sa RN4220 lethal,0.0,2.4,.,3.0,8.6,-0.6,.,0.3,9.6,1.7
Bead autofluor,3884,3040,2047,3388,3533,3667,4015,4238,4026,4193
ugtP null kill,-13,14,.,3,22,10,.,3,10,4

11. NC(=O)CC(NC(=O)c1cccc(Br)c1)c1ccc(NC2CCCCCCCCCCC2)c([N+](=O)[O-])c1 (stereo not given)
12. CC(=O)Oc1ccc(/C=N/NC(=O)c2ccc(N(C)S(=O)(=O)c3ccccc3)cc2)cc1
13. Cc1cccnc1NC(=O)CCCc1c[nH]c2ccccc12
14. CCS(=O)(=O)n1nc(-c2ccccc2)cc1N
15. Cc1cccc(-n2cc(CNCCN3CCOC3=O)c(-c3cccc(F)c3)n2)c1
16. COc1cccc(-c2nc(N3CCN(c4ccccc4)CC3)c3ccccc3n2)c1O
17. O=C(OCc1nnn(Cc2ccccc2)c1-c1c(COC(=O)c2ccccc2)nnn1Cc1ccccc1)c1ccccc1
18. Cc1cc(=O)n2c3ccccc3n(CC(O)CN3CCC(C)CC3)c2c1C#N (stereo not given)
19. Cc1ccc(C)c(CN2C(=O)C3(OCCCO3)c3ccccc32)c1
20. CCCCn1c(=O)n(C)c(=O)c2c(C(F)(F)F)cc(-c3ccncc3)nc21
Screen / compound no.,11,12,13,14,15,16,17,18,19,20
Mtb hypoxia rep,12,.,3,-7,15,1,2,6,7,.
Mtb hypoxia rep growth,4,.,12,-1,18,2,5,0,17,.
PrP UTR inh,-15,-2,8,-28,-30,-20,-26,-19,1,-8
BJeLR viability,11,-3,1,-9,9,2,.,-8,1,-3
Sa RN4220 lethal,-4.0,.,1.2,0.6,10,1.8,4.9,0.7,-3.3,-0.6
Bead autofluor,3619,4208,6145,5104,4119,2509,3534,2389,23436*,4405
ugtP null kill,-29,.,-3,1,4,-8,-12,0,14,4

Structural class: the entries above with an NH in an aromatic ring.
10. CCOC(=O)N1CCN(C(=O)c2ccc(Cn3c(=S)[nH]c4ccc(Br)cc4c3=O)cc2)CC1
13. Cc1cccnc1NC(=O)CCCc1c[nH]c2ccccc12
Screen / compound no.,10,13
Mtb hypoxia rep,-3,3
Mtb hypoxia rep growth,5,12
PrP UTR inh,-7,8
BJeLR viability,17,1
Sa RN4220 lethal,1.7,1.2
Bead autofluor,4193,6145
ugtP null kill,4,-3

(continued)
21. CCOC(=O)N1CCN(C(=O)c2cn(C)c3ccc(S(=O)(=O)N4CCOCC4)cc3c2=O)CC1
22. Cc1nn(-c2ccc(F)cc2)c(Cl)c1/C=C1\C(=O)Nc2ccccc21
23. COc1ccccc1CCNC(=O)C(=O)c1cn(CC(=O)N2CCOCC2)c2ccccc12
24. N=c1c(C(=O)NCC2CCCO2)cc2c(=O)n3ccccc3nc2n1Cc1ccccc1 (stereo not given)
25. C[n+]1cccc2cccc([O-])c21
26. O=C(O)C1CC(O)CN1c1nc(Cl)ccc1[N+](=O)[O-] (stereo not given)
27. CC(=O)Nc1ccc(C=NNc2ccc([N+](=O)[O-])cn2)cc1
28. COC(=O)CN1C(=O)[C@H]2[C@@H](/C=C/c3ccccc3)N3C(=O)CN(Cc4ccccc4)C(=O)[C@@]3(Cc3ccccc3)[C@H]2C1=O
29. NS(=O)(=O)c1cnccc1Nc1ccc(Cl)c(Cl)c1
30. Cc1cc(C)c(S(=O)(=O)N2CCCCC2CCNC(=O)C(=O)NC2CC2)c(C)c1 (stereo not given)
Screen / compound no.,21,22,23,24,25,26,27,28,29,30
Mtb hypoxia rep,10,-3,6,-6,5,2,7,.,5,9
Mtb hypoxia rep growth,8,3,5,1,10,15,-1,.,5,3
PrP UTR inh,-15,-37,-10,-4,-81,-40,-78,-13,-33,10
BJeLR viability,-5,.,9,-1,.,10,.,-1,-8,10
Sa RN4220 lethal,0.8,15,3.9,0.7,5.3,1.7,1.6,.,5.9,0.8
Bead autofluor,5181,2315,5378,5290,5191,4879,3807,4435,2101,.
ugtP null kill,8,3,2,6,5,3,-1,.,-14,2

31. CC(=O)Nc1ccc(NC(=O)COC(=O)C2CCCCC2)cc1
32. Cn1c(=NC(=O)C(C)(C)C)sc2cccc(F)c21
33. CN1CC(C(=O)c2ccc(Cl)cc2)C(c2ccccc2)C1 (stereo not given)
34. CSc1sc(C(=O)NC(=O)NCc2cccnc2)c(C)c1-c1ccon1
35. NC(CO)C12CC3CC(CC(C3)C1)C2 (stereo not given)
36. COc1ccc(-c2c(-c3ccccc3OC)oc3ccccc23)cn1
37. O=C(c1cccs1)N(C(=O)c1cccs1)c1ccccn1
38. COC(=O)c1ccccc1S(=O)(=O)N1CCC(C(=O)N2CCC2)CC1
39. COc1cccc(N2CCN(C(=O)C3CCCN(S(=O)(=O)c4ccc5c(c4)oc(=O)n5C)C3)CC2)c1 (stereo not given)
40. CC1Sc2ccc(S(=O)(=O)N3CCN(c4ccccc4)CC3)cc2NC1=O (stereo not given)
Screen / compound no.,31,32,33,34,35,36,37,38,39,40
Mtb hypoxia rep,-3,6,8,4,-16,-3,16,-6,0,5
Mtb hypoxia rep growth,5,12,-1,19,-2,3,3,3,-5,4
PrP UTR inh,-17,-22,-3,-20,-17,-34,-25,-24,-10,-11
BJeLR viability,.,-3,-9,-1,-11,.,2,.,17,9
Sa RN4220 lethal,5.3,15,1.0,4.7,-2.1,-7.5,4.6,3.3,4.4,1.7
Bead autofluor,5790,4692,3821,5306,4520,3978,9573,9085,4120,5763
ugtP null kill,3,18,0,-3,-5,56,5,10,13,-2

41. COc1ccc(C2C3=C(CC(C)(C)CC3=O)N(C)C3=C2C(=O)CC(C)(C)C3)cc1
42. O=C(NCCN1CCCCC1)c1cc(OCC(F)(F)F)ccc1OCC(F)(F)F
43. COc1ccc2c(c1)c(C(=O)NN=Cc1ccccc1Cl)c(C)n2C
44. Cc1ccc(NC(=S)N2CCCC(c3nc4ccccc4[nH]3)C2)cc1 (stereo not given)
45. Cc1cc(=O)[nH]c(N/N=C/c2ccc(F)cc2)n1
46. O=C(NCC(c1cccs1)N1CCOCC1)c1cc2ccccc2oc1=O (stereo not given)
47. CCN1C(=O)C(=Cc2ccc(C)s2)SC1=Nc1ccc(OC)cc1
48. COc1ccc(COC(=O)C2CCN(S(=O)(=O)c3ccc(Cl)cc3)CC2)cc1
49. CC(=O)N1CCc2cc(S(=O)(=O)N3CCCCCC3)ccc21
50. O=C(CCSCCC(=O)NN=Cc1cccc(Cl)c1)NN=Cc1cccc(Cl)c1
Screen / compound no.,41,42,43,44,45,46,47,48,49,50
Mtb hypoxia rep,.,12,9,12,.,6,4,3,5,6
Mtb hypoxia rep growth,.,15,7,7,.,-3,11,7,8,6
PrP UTR inh,-6,-1,.,-28,-27,-8,.,-55,-23,-47
BJeLR viability,-5,4,.,-5,3,.,.,-4,-9,.
Sa RN4220 lethal,.,0.1,3.1,-0.3,.,6.0,-1.0,1.5,2.8,-5.8
Bead autofluor,3286,4991,.,3917,3868,3857,.,5783,5722,3782
ugtP null kill,.,0,-1,6,.,-12,34,13,-5,-8

51. CCCCN(C)CC(O)Cn1cc(/C=C/C(=O)c2ccc(C)cc2)c2ccccc21 (stereo not given)
52. Cc1ccnc(SCC(=O)c2ccc([N+](=O)[O-])cc2)n1
53. CN(C)CCNC(=O)C(C(=O)c1ccc(F)cc1)n1ccccc1=O (stereo not given)
54. CCOC(=O)c1[nH]c(C)c(C(=O)c2cc(F)ccc2F)c1C
55. O=C(O)CC/C(=N/Nc1ccc([N+](=O)[O-])cc1)C(=O)O
56. CSc1ccc(CCNC(=O)C2CCCN(c3ncnc4c3nc3n4CCCCC3)C2)cc1 (stereo not given)
57. CCOc1cc2[nH]c(=O)n(CCCC(=O)N(C)Cc3ccccc3)c(=O)c2cc1OCC
58. CC(C)NC(=O)CN1CCC(O)(c2ccccc2)CC1
59. COc1ccc(S(=O)(=O)N2CCN(CCc3ccccc3)CC2)cc1
60. Cc1cccc(CCNC(=O)c2cc(S(=O)(=O)N3CCCC3)cn2C)c1
Screen / compound no.,51,52,53,54,55,56,57,58,59,60
Mtb hypoxia rep,.,9,13,11,.,3,10,4,1,1
Mtb hypoxia rep growth,.,0,7,12,.,-12,9,1,15,12
PrP UTR inh,-4,-24,-10,45,-20,-18,-17,-16,-31,-9
BJeLR viability,9,-22,3,20,4,2,-26,-8,-6,-5
Sa RN4220 lethal,.,7.1,5.3,5.5,.,1.3,-1.9,1.0,3.4,-11
Bead autofluor,4790,2052,9657,7991,5500,4368,4069,10538,3779,5184
ugtP null kill,.,6,-10,23,.,1,1,8,7,-7

61. CC(C)(C)c1ccc(S(=O)(=O)N2CCN(CCC#N)CC2)cc1
62. c1ccc(Cn2cc(CN3CCCO3)c(-c3ccc4c(c3)OCO4)n2)cc1
63. CCOC(=O)NC1=NCC(C)S1 (stereo not given)
64. O=C(CON=Cc1ccc(OC(F)F)cc1)NCc1ccc(F)cc1
65. CC(=O)Nc1ccc2nc(NC(=O)CS(=O)(=O)c3ccccc3)sc2c1
66. Cc1nnc(SCC(=O)NC(C)(C)C)n1NCc1ccc(Cl)cc1
67. COCCNC(=O)C(c1ccc(F)cc1)N(C(=O)CCC(=O)Nc1ccccn1)c1cccc(C)c1 (stereo not given)
68. COc1ccc2c(c1)OC(c1cccc(C(F)(F)F)c1)C(O)C2=O (stereo not given)
69. CCOc1ncccc1C(=O)OCC(=O)c1ccc(C)c(C)c1
70. O=C(O)c1ccccc1S(=O)(=O)c1ccccc1CO
Screen / compound no.,61,62,63,64,65,66,67,68,69,70
Mtb hypoxia rep,.,-12,-6,16,6,4,18,3,5,.
Mtb hypoxia rep growth,.,-14,-1,1,2,7,4,3,-9,.
PrP UTR inh,-22,-17,2,.,-18,-25,-13,.,-15,-20
BJeLR viability,0,11,-4,.,-6,.,-1,.,13,-7
Sa RN4220 lethal,3.1,0.8,-0.6,3.3,8.1,8.8,0.3,6.4,7.6,-0.4
Bead autofluor,6343,4803,3702,.,?,4226,4034,.,5674,2719
ugtP null kill,-12,-2,-1,7,3,5,-3,0,2,-1

71. COC(=O)c1cc(C(=O)Nc2ccc(Cl)cn2)cc([N+](=O)[O-])c1
72. O=C(NNC(=O)C1CC(=O)N(c2ccc3c(c2)OCCO3)C1)c1ccc(F)cc1 (stereo not given)
73. Cc1ccc(S(=O)(=O)NC(=O)N(CCC#N)Cc2ccccc2)cc1
74. COc1ccc(/C=C/c2c(-c3ccc(OC)cc3)oc3ccccc23)cc1
Screen / compound no.,71,72,73,74
Mtb hypoxia rep,-10,4,5,.
Mtb hypoxia rep growth,-2,-1,3,.
PrP UTR inh,-22,-5,-30,-7
BJeLR viability,3,-4,7,-5
Sa RN4220 lethal,1.8,1.2,0.5,.
Bead autofluor,2536,.,3951,3791
ugtP null kill,-6,0,2,.
